TRPML1 ag – qHTS for Agonists of the Human Mucolipin Transient Receptor Potential 1 (TRPML1); Mucolipin-1 (Homo sapiens), Q9GZU1; TRPML1-expressing cells, Ca2+ dye fluorescence, FDSS; host cell line not named in the record; reference of the full effect not given here; activation, % (test concentration not listed); hit rate 0.12% among 410,000; in the data active = activation above about 50%; inconclusive = about 30% to 50%; inactive = below about 30%; further: 0% is about no effect; the text of the record puts the active cut at 80%
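Tet-induced TRPML1-DL cells, 1,500 per well, cultured overnight, were loaded with a no-wash Ca2+ dye for 45–90 min. Calcium fluorescence was recorded on the FDSS for 110 s after compound addition, before the EC80 agonist (4 uM 54-4) was added.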
TRPML1 blocker – qHTS for Inhibitors of the Human Mucolipin Transient Receptor Potential 1 (TRPML1); Mucolipin-1 (Homo sapiens), Q9GZU1; TRPML1-inducible cells, Ca2+ dye fluorescence, FDSS; active compounds read low; inhibition of EC80 agonist-evoked calcium signal; activity change, negative = inhibition, % (no concentration beside the values); hit rate 0.02% among 390,000; AID 624415, 2012; in the data active means activity change below about -50%; inconclusive means about -30% to -50%; inactive means above about -30%;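 further: stimulus is agonist 54-4 at its EC80 concentration; on the % scale 0 is the no-effect control and ±100 the full control effect; compound concentration not given in the record; the text of the record puts the active cut at -80%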
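TRPML1-DL cells, Tet-induced overnight (~16 h, 37 °C) at 1,500 cells/well, were loaded with Ca8 no-wash dye plus quencher for 45-90 min at room temperature. Compounds were pinned during FDSS kinetic reading; agonist 54-4 at EC80 (4 uM final) then added.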
D2 ag – Beta-Arrestin HTS for Positive Allosteric Modulators of the Human D2 Dopamine Receptor: Agonists; D(2) dopamine receptor (Homo sapiens), P14416; DiscoveRx PathHunter D2 beta-arrestin, luminescence, 90 min; 100% = 57 uM dopamine signal; activation, % (test concentration not listed); hit rate 0.084% among 360,000; AID 624465, 2012; in the data active = activation above about 40%; inconclusive = about 15% to 40%; inactive = below about 15%; further: compound concentration not given in the record; the text of the record calls up to 30% inactive
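DiscoveRx PathHunter D2 beta-arrestin cells (2,100/well) attached overnight, then compound-stimulated 90 min at 37 C in HBSS/10 mM HEPES/0.1% Tween-20 buffer; beta-galactosidase complementation read by luminescence after 1 h at ambient temperature. Dopamine 57 uM final (EC100) as control.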
PINK1 expr mod – A Quantitative High throughput Screen to Identify Chemical Modulators of PINK1 Expression; PINK1 immunofluorescence, high-content cytometry, 24 h; Potency, µM (top dose mostly 76.6 µM), without a hit: at the highest dose activation (PINK1 increase), hits mostly activators; hit rate 0.2% among 410,000; AID 624263, 2012; active = well fitted activation curve with a large enough effect; inconclusive = small, poorly fitted or top-dose-only effect; inactive = flat fitted curve, though single readings scatter; cell line not stated here;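 further: potency means the concentration at half of the fitted maximal effect; % of control where 0% means no effect; nearly all actives have a fitted effect of over 65% in size; a mitochondrial uncoupler was the plate control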
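PINK1 protein level read as immunofluorescence by microplate cytometer in a fixed, stained stable cell line after 24 h exposure to five compound concentrations, with CCCP as control.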
Six1-Eya2 blk – qHTS Assay for Inhibitors of the Six1/Eya2 Interaction | AlphaScreen GST-Six1/His-Eya2 binding, biochemical; active compounds read low; control for the full effect not named in the record | Homeobox protein SIX1 (Homo sapiens) + Protein phosphatase EYA2 (Homo sapiens), … | hit rate 0.56% among 360,000 | activity change, % (test concentration not listed); in the data active = activity change below about -65%; inconclusive = about -30% to -65%; inactive = above about -30%; further: on the % scale 0 is the no-effect control and ±100 the full control effect
Target sequence (O00167 whole entry, looked up): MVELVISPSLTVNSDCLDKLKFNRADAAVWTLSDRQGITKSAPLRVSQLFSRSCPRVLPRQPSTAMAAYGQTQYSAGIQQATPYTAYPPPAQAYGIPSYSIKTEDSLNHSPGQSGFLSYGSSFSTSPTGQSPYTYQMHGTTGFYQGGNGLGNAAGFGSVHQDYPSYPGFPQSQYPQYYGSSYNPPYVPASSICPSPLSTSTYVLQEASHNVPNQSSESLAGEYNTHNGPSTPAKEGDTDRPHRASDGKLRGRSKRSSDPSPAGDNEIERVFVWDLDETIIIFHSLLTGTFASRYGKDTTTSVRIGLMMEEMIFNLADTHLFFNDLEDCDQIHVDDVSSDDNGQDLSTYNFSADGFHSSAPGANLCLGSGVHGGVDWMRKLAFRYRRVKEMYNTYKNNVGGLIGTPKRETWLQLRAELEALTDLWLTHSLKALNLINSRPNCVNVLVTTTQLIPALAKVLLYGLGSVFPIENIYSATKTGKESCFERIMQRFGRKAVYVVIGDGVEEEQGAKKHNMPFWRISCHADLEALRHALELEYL
Target sequence (Q15475 whole entry, looked up): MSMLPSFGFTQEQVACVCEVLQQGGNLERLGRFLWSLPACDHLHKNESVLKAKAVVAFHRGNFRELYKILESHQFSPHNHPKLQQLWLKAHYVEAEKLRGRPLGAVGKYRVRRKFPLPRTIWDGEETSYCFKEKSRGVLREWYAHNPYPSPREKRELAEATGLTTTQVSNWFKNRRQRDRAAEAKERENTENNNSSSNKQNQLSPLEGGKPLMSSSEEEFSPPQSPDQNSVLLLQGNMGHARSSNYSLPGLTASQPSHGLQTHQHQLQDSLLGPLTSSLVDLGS
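Compounds are tested against tagged Six1 and Eya2 proteins bridged by glutathione donor and nickel acceptor beads; after a one-hour incubation at 37 °C without light, AlphaScreen emission is recorded.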
CtBP-E1A blk – qHTS Assay for Inhibitors of the CtBP/E1A Interaction. activity change, % (no concentration beside the values). hit rate 0.49% among 340,000. CtBP / adenovirus E1A interaction (AlphaScreen). AlphaScreen GST-E1A/His-CtBP binding, 1536-well; active compounds read low; control for the full effect not named in the record; in the data active means activity change below about -65%; inconclusive means about -30% to -65%; inactive means above about -30%; further: on the % scale 0 is the no-effect control and ±100 the full control effect
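Protein mix (5X: 125 nM each GST-E1A, His-CtBP) was incubated with pinned compound 2 h at 37 deg C in dark, in 50 mM Tris pH 8.0 buffer with 300 mM NaCl. Glutathione donor and nickel acceptor beads followed; AlphaScreen signal read after 1 h.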
Starred values were filed as active, the others as inactive; ? = inconclusive; · = no result given; & = joins results of further samples; [ ] = remark or other dose. Random draw from the library; 1% or so of the library scored in one or more.

SMILES	TRPML1 ag	TRPML1 blocker	D2 ag	PINK1 expr mod	Six1-Eya2 blk	CtBP-E1A blk
CCCCOc1ccc(N(CC(=O)NC(C)(C)C)C(=O)CCC(=O)Nc2nccs2)cc1	0.3	28	-2.1	-0.8%	-3	·
Cc1ccc(-c2nc3ccccc3[nH]2)cc1NC(=S)NC(=O)c1ccccc1Br	1.2	-9	-2.8	3.5%	-3	2
COC(=O)[C@]12CCCCC=C1N(Cc1cccc3ccccc13)C(=O)[C@H](CC(=O)NCCCN1CCCC1=O)C2	2.5	·	·	0.8%	-4	-3
O=S1(=O)CC(N2CCSCC2)CN1Cc1cn(Cc2ccc(C(F)(F)F)cc2)nn1 (stereo unspecified)	0.0	·	·	-0.6%	-8	0
NC(=O)C1=CN(Cc2ccc(Cl)cc2)CCC1C(F)(F)F (stereo unspecified)	-0.6	-4	-4.8	1.1%	4	0
CC1=C(C(=O)N(C(C)C)C(C)C)CC(CC(=O)NCC2CCCCC2)C(=O)N1Cc1ccccc1 (stereo unspecified)	-0.1	·	-4.4	0.9%	-4	3
COc1cccc(NC(=O)c2cc([N+](=O)[O-])ccc2NC(=O)CNCC2CCCO2)c1 (stereo unspecified)	0.3	-4	-0.7	-1.0%	3	0
C[C@H]1NS(=O)(=O)c2cc(Cl)ccc2O[C@@H]1c1ccccc1	-0.3	20	-7.3	-0.5%	3	1
Cc1ccc(NC(=O)c2ccc(S(=O)(=O)N3CCC(C)CC3)cc2)cc1	1.6	1	0.4	7.7%	-1	-1
CS(=O)(=O)Nc1ccc(C(=O)N2CCCCC2)cc1	-0.4	-1	-1.4	7.4%[38.3 µM]	-1	9
CC1CCCCN1Cc1c(C#N)c2ccccc2n1C (stereo unspecified)	2.5	38	-8.1	3.8%	7	10
Cc1ccc(NC(=O)CN(C)C(=O)CCSc2ccc(F)cc2)cc1	3.2	1	-0.3	2.9%	-1	1
CC(c1ccco1)N(C(=O)c1ccc(Cl)s1)c1ccccn1 (stereo unspecified)	-0.4	9	8.2	-3.1%[38.3 µM]	-3	11
COc1ccc(C(=O)n2cnc(N)n2)cc1	-0.4	1	-1.7	0.1%	1	8
Oc1ccc(-c2csc(Nc3cccc4ccccc34)n2)cc1O	0.4	5	7.6	5.8%	-18	-10
Cc1ccc(NC(=O)Cn2nc(C)c([N+](=O)[O-])c2C)cc1Cl	-0.9	23	-0.2	2.6%	-1	3
CN(CCc1ccccn1)C(=O)CCC1CCCN(C(=O)CN2CCCCCC2)C1 (stereo unspecified)	0.2	-17	-1.5	2.3%	5	8
O=C(CN1CCC(NC(=O)c2ccco2)CC1)Nc1ccccc1C(F)(F)F	-0.3	-11	-1.0	2.9%	3	0
Cc1cccc(OCc2nnc(SC(C)C(=O)Nc3ccc(N4CCOCC4)cc3)o2)c1 (stereo unspecified)	2.0	9	-0.8	1.6%	-5	-17
COc1cc(NC(=O)C2=C(N3CCOCC3)/C(=C\c3ccc(Cl)cc3Cl)CC2)cc(OC)c1OC	1.1	18	-2.0	18%	-2	-10
CN(C)S(=O)(=O)c1ccc(Cl)c(C(=O)Nc2cccc3ncccc23)c1	-0.9	9	0.7	-1.6%	-6	2
COc1ccc(NC(=O)Cc2ccsc2)cc1S(=O)(=O)N1CCCCC1	1.3	-1	2.9	6.0%	-1	1
O=C(COc1ccc(C(=S)N2CCCC2)cc1)Nc1ccc(F)cc1	0.2	0	0.3	11%	-3	0
COc1ccc(-c2cc(C(F)(F)F)n3nc(C(=O)Nc4c(C)n(C)n(-c5ccccc5)c4=O)c(Cl)c3n2)cc1	-0.3	-11	-2.9	6.0%	-5	0
CO/N=C\CC(=O)Nc1ccc(Cl)c(Cl)c1	-0.1	7	-2.3	3.4%	-3	0
COc1ccccc1C(C)NC(=O)C1CCN(S(=O)(=O)c2cccs2)CC1 (stereo unspecified)	3.5	17	2.1	-0.1%	-1	2
CCn1ncc(C2=NOC(C(=O)Nc3cccc(C(C)=O)c3)C2)c1C (stereo unspecified)	2.5	10	-1.6	0.0%[38.3 µM]	1	3
Fc1cccc(Cl)c1Cn1nnc2c(NCc3ccccn3)ncnc21	1.5	7	-1.9	0.5%	-4	-6
Cc1cc(C)nc(NS(=O)(=O)c2ccc(NC(=O)CN3C(=O)S/C(=C\c4ccccc4)C3=O)cc2)n1	-0.4	5	-7.1	8.8%	-8	-17
COc1ccccc1NS(=O)(=O)c1ccc(C)c(C(=O)NNC(=O)c2csc(N3CCOCC3)n2)c1	-0.3	-6	-4.0	-0.6%	-2	·
O=C1c2oc3ccccc3c(=O)c2C(c2cccnc2)N1CCCN1CCOCC1 (stereo unspecified)	-0.6	-8	-2.6	-1.5%	-4	1
COc1ccc(CNC(=O)CSc2n[nH]c(N)n2)cc1OC	-0.4	-1	0.8	-0.4%	0	12
COc1ccc(CSc2nc3ccccc3[nH]2)cc1	1.8	15	-2.1	-2.5%	2	7
Cc1ccccc1CCNC(=O)C1CCN(c2nc3ccccc3nc2C(F)(F)F)CC1	-0.5	9	·	-0.3%	·	·
COc1ccc(-c2nc3ccc(C(=O)NCc4ccccc4)cc3nc2-c2ccc(OC)cc2)cc1	2.4	14	·	1.6%	·	·
CC(CCc1ccccc1)NC(=O)C(=O)Nc1ccccc1 (stereo unspecified)	0.3	24	-0.4	2.0%	10	17
O=C(NNS(=O)(=O)c1ccc(Cl)cc1)c1cccs1	1.7	-4	6.5	-0.8%	5	-19
COc1ccc2c(c1)[nH]c1c(=O)n(CCCn3ccnc3)cnc12	-0.5	8	-1.3	0.3%	-5	-3
Cc1cc(/C=N/NC(N)=S)c(C)n1-c1ccc(Cl)cc1	2.5	4	-4.3	0.8%	-13	-18
C=CCn1c(C)c(C(C)=O)cc(NC(=O)c2ccccc2)c1=O	0.5	-5	0.5	-0.2%	2	0
CCN1C(=O)c2cccc3c(Cl)ccc1c23	1.9	-12	-5.3	-0.7%	52	21
O=C(OCc1c(-c2ccccc2)ncc2ccccc12)c1ccc(F)cc1	7.4	-9	-0.6	2.0%	-2	4
Cc1cc(NC(=O)CSc2nc3cc(C(=O)NCCCOC(C)C)ccc3c(=O)n2Cc2ccco2)no1	0.1	43	-5.0	7.9%	-15	15
COc1ccc(NC(=O)c2cccc(S(=O)(=O)N(C)c3ccccc3)c2)cn1	0.5	-13	-0.4	-0.4%	-3	5
CCCCc1ccc(-n2c(Cc3cccs3)n[nH]c2=S)cc1	2.3	-2	-1.6	1.2%	-1	-5
COc1ccccc1NC(=O)CCc1nnc2ccc(N3CCN(C)CC3)nn12	-0.3	-3	-0.4	-0.9%	-4	1
N#Cc1ccccc1COC(=O)c1ccc2c(c1)OCO2	2.8	-3	0.7	3.2%	42	·
COC(=O)c1ccccc1NC(=O)CN(C)S(=O)(=O)c1cc(C)ccc1OC	1.2	51	-4.2	-1.0%	5	9
C=CCOc1c(CNc2ncn[nH]2)cccc1OC	-0.8	?	1.0	1.7%	6	5
CCOc1ccccc1C(=O)OCC(=O)Nc1cc(Cl)ccc1Oc1ccccc1	4.5	33	-0.5	-1.4%	11	9
CCOC(=O)c1c(NC(=O)c2cc(C(C)C)on2)sc(C)c1C	-0.5	-10	·	1.0%	·	·
Oc1cccc(C2c3[nH]c4ccccc4c3CCN2Cc2ccoc2)c1 (stereo unspecified)	1.9	4	0.7	7.4%	-27	-12
O=S(=O)(NCCN1CCOCC1)c1cccs1	0.6	-12	0.4	1.6%	7	11
CCCCOC(=O)c1ccc(NC2=NS(=O)(=O)c3ccccc32)cc1	-0.2	-6	·	0.7%	·	·
COc1ccc2ccccc2c1/C=N\n1c(C)cc(C)c(C(N)=O)c1=O	0.1	-8	0.2	·	-2	9
CC1=C(C(=O)Nc2cccc(C(=O)NCc3ccccc3C)c2)SCCO1	1.1	-17	-4.3	-0.5%	-3	-10
O=C1CCN(Cc2ccc(O)cc2)CCN1CCO	-0.3&0.4	0	-4.0	0.9%&2.9%	-2&22	-1&1
Cc1ccc(C(C)(C)C)c(OCCCCN2CCCC2)c1	0.3	-24	-3.6	2.5%	-8	1
CCOC(=O)Cc1csc(SCC(=O)c2c(N)n(CC(C)C)c(=O)n(C)c2=O)n1	-0.5	17	3.8	-6.4%[38.3 µM]	2	-1
COC(=O)Cc1ccc(NC(=S)N2CCN(c3ccccn3)CC2)cc1	-0.3	2	1.4	0.8%	1	·

(continued)
SMILES	TRPML1 ag	TRPML1 blocker	D2 ag	PINK1 expr mod	Six1-Eya2 blk	CtBP-E1A blk
O=C(NC1CCc2ccccc21)c1cc(COc2cncc(Cl)c2)on1 (stereo unspecified)	1.1	1	-2.5	0.6%	-5	-11
COc1ccc(C2Nc3ccccc3C(=O)N2NC(C)=O)c(OC)c1 (stereo unspecified)	0.6	3	-2.0	-0.7%	25	0
CCCn1c(SCC(=O)NC2CCC(C)CC2)n[nH]c1=O (stereo unspecified)	0.3	5	-2.5	-1.5%	0	7
CN(C)CCCNC(=O)c1ccc(Cl)c(S(=O)(=O)N2CCCCCC2)c1	0.4	3	1.4	-3.2%	9	4
Cc1ccc(S(=O)(=O)N2[C@@H](c3ccc(C(C)(C)C)cc3)C(C(=O)O)=CC[C@H]2c2ccc3c(c2)OCO3)cc1	1.2	53	1.9	-0.7%	-2	-2
Cc1cccc(N2CCN(C(=O)COc3ccc4c(c3)CCC4)CC2C)c1 (stereo unspecified)	3.2	10	-2.1	4.0%	-10	-14
COc1ccc(OC)c(CCNC(=O)c2cccc(NC(=O)C3=C(C)OCCS3)c2)c1	1.2	-4	-7.2	0.3%	-10	-15
Cn1nc(-c2ccc(C(=O)Nc3ccc(OC(F)(F)F)cc3)cc2)c2ccccc2c1=O	-0.2	-11	·	2.7%	·	·

Compound profiles, as listed above. Screens in order: TRPML1 ag	TRPML1 blocker	D2 ag	PINK1 expr mod	Six1-Eya2 blk	CtBP-E1A blk
Cc1cccc(N2CCN(C(=O)COc3ccc4c(c3)CCC4)CC2C)c1 (stereo unspecified) across the screens: 3.2	10	-2.1	4.0%	-10	-14
COc1ccc(OC)c(CCNC(=O)c2cccc(NC(=O)C3=C(C)OCCS3)c2)c1 across the screens: 1.2	-4	-7.2	0.3%	-10	-15
O=C(NC1CCc2ccccc21)c1cc(COc2cncc(Cl)c2)on1 (stereo unspecified) across the screens: 1.1	1	-2.5	0.6%	-5	-11
COc1ccc(C2Nc3ccccc3C(=O)N2NC(C)=O)c(OC)c1 (stereo unspecified) across the screens: 0.6	3	-2.0	-0.7%	25	0
